Ba CapD inh: inhibitors of Bacillus anthracis CapD enzyme | z-score (no concentration beside the values) | purified CapD enzyme, fluorescence intensity read-out; stronger effect = lower value; some hits fall short of the stated cut | hit rate 0.23% among 140,000;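 active = z-score under -4 in either of two replicates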;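 also: stock transfer was 100 nL into about 40 µL; score is relative to mean and spread of the plate; one replicate is shown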
AID504770: E. coli YBA685 growth inhibition, screen for V. cholerae RctB inhibitors; hit rate 0.27% among 130,000; E. coli YBA685 rctB-dependent plasmid, OD600 growth, 3 h; stronger effect = lower value; z-score (concentration not given with the values); AID 504770;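 active = z-score under -2 on both plates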;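 also: wells of about 30 µL received 100 nL stock; score is relative to mean and SD of the test wells; the first replicate is given; strong numbers were not always called active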
* = called active by the depositor; nt = not tested or not shown.

Each structure is followed by: Ba CapD inh, AID504770
- Cc1nc(-c2cccc(NC(=O)c3cc4cc(Br)ccc4oc3=O)c2)cs1
→ 0.14, nt
- O=C(c1ccc2c(c1)N(Cc1ccccc1)C(=O)c1ccccc1S2=O)N1CCCC1 (configuration not stated)
→ 0.29, 0.6
- O=C(Nc1ccc(N2CCOCC2)cc1)c1sc2cc(F)ccc2c1Cl
→ 1.1, 1
- O=C(Nc1ccc2c(c1)OCO2)NN1CCOCC1
→ -0.035, -0.7
- CCc1ccc(NC(=O)C2c3ccccc3C(=O)N(C)C2c2cccs2)cc1 (configuration not stated)
→ 0.72, 0.25
- Nc1cc[n+](CC(O)CO)cc1 (configuration not stated)
→ nt, 0.15
- CC(C)(C)C(=O)/C(C#N)=C/c1ccc2c(c1)OCCO2
→ nt, 0.3
- O=C(O)/C=C/c1cccc(NS(=O)(=O)c2cccc3cccnc23)c1
→ -0.56, -1
- Cc1nc2ccccn2c1-c1ccnn1C(=O)c1ccc(C(F)(F)F)cc1
→ 13, -0.6
- CC(=O)NC(C(=O)O)c1ccccc1 (configuration not stated)
→ -0.09, nt
- O=C(COc1ncnc2ccccc12)NCc1ccccc1
→ 0.33, 0.7
- CC(OC(=O)c1ccccc1NS(C)(=O)=O)c1nnc(-c2cccs2)o1 (configuration not stated)
→ nt, 0.2
- CCc1cc2ccccc2nc1Cl
→ nt, -0.75
- c1csc(CNC2CCCC2)c1
→ nt, -0.3
- COC(=O)C(Cc1cn(Cc2ccccc2)cn1)NC(=O)CC1Cc2ccccc2C1 (configuration not stated)
→ -0.43, nt
- O=C(O)C1C2C=CC(C2)C1C(=O)Nc1nccs1 (configuration not stated)
→ -0.56, 1.2
- COC(=O)c1c(C)oc(C)c1S(=O)(=O)NC1CCCCCCCCCCC1
→ 0.78, 0.9
- CCN1C(N)=C(C#N)C2(CCNCC2)c2nc(C)oc21
→ 1.2, 1.6
- CCCNC(=O)CC(c1cccs1)N1Cc2ccccc2C1=O (configuration not stated)
→ 0.3, -0.3
- CCOC(=O)c1cnc(Nc2nc3ccccc3o2)nc1CSc1nnc(C)s1
→ 0.28, 0.4
- O=C(O)Cn1cc(Br)c(=O)[nH]c1=O
→ 0.4, 0.4
- CCCOc1ccc2oc(=O)c3c(c2c1)CCCN3C(=O)CN(C)c1ccc(C)cc1
→ 6.5, -0.4
- COc1ccc(C2CC(=O)C3=C(C2)Nc2ccccc2NC3c2ccc3c(c2)OCO3)cc1OC (configuration not stated)
→ -1.4, nt
- Brc1ccc(CN2CCNCC2)s1
→ nt, -0.35
- COc1cccc(C(=O)OC(C)C(=O)Nc2ccc(N(C)C)cc2)c1 (configuration not stated)
→ nt, 1.6
- CC(OC(=O)c1cccc(N(C)C)c1)C(=O)N1CCc2ccccc21 (configuration not stated)
→ nt, 1.4
- O=C(O)CSc1nc2ccccc2o1
→ 6.9, -0.05
- COc1ccccc1-c1cc2ccccc2oc1=O
→ 32, -1.1
- O=C(Nc1ccc(Cl)cc1)N1CCC(C(c2ccccc2)c2ccccc2)CC1
→ -0.3, -0.05
- O=C(Nc1sc2c(c1Sc1nnnn1-c1ccccc1)CCCC2)c1ccccc1
→ nt, 1.5
- CCCCC(C(=O)Nc1ccc([N+](=O)[O-])cc1)N1C(=O)C2C3c4ccccc4C(c4ccccc43)C2C1=O (configuration not stated)
→ 0.24, nt
- COc1ccccc1CNC(=O)c1sc2nc(C)nc(N3CCN(c4ccccn4)CC3)c2c1C
→ -0.56, nt
- N#Cc1ccc(-c2ccc(Cl)cc2)n(Cc2ccc(C(F)(F)F)cc2)c1=O
→ 0.5, nt
- Cc1cc(C)n(-c2nc3nonc3nc2-n2nc(C)cc2C)n1
→ -0.47, nt
- CC1Oc2ccccc2N(CC(=O)Nc2ccccc2F)C1=O (configuration not stated)
→ nt, 1.6
- CCOC(=O)C1=C(C)N=c2s/c(=C\c3cc(Br)c(OC)c(OC)c3)c(=O)n2C1c1ccc2c(c1)OCO2 (configuration not stated)
→ -0.16, nt
- CCN(C(=O)c1c(-c2c(Cl)cccc2Cl)noc1C)c1ccccc1C
→ 0.45, -0.5
- COc1ccc(S(=O)(=O)Nc2ccccc2C(=O)NC(C)C)cc1OC
→ nt, -0.45
- c1ccc(-c2ccc(-c3nc4nc(-c5ccccc5)c(-c5ccccc5)nn4c3-c3ccccc3)cc2)cc1
→ -0.34, nt
- COc1ccc(N2CCN(c3ccc(NC(=O)C4CCCCC4)cc3C#N)CC2)cc1
→ 22, 0.8
- COC1=CC(=O)C(C)=CC1=O
→ 0.19, -3.1*
- CCS(=O)(=O)N1CCCC(C(=O)NCCc2ccccc2)C1 (configuration not stated)
→ 0, -0.2
- COc1ccc(C2=NN(C(=O)c3cc([N+](=O)[O-])cc([N+](=O)[O-])c3)C(c3ccc(Br)cc3)C2)cc1 (configuration not stated)
→ 0.43, nt
- O=C(c1cn[nH]c1C1CCNCC1)N1CCC(c2ccccc2)C1 (configuration not stated)
→ -0.095, -0.6
- Oc1ccccc1-c1cc(-c2ccccc2)n[nH]1
→ -0.28, -0.05
- Brc1ccccc1C1Nc2cccc3cccc(c23)N1
→ 0.24, nt
- CCNC(=O)On1ccc2ccc(S(C)(=O)=O)cc21
→ -0.035, nt
- CCOc1ccc2c(c1)C(=C1SC(C(=O)OC)=C(C(=O)OC)S1)C(=S)C(C)(C)N2C(=O)C1CC1
→ -0.32, nt
- CC(C)(C)SC(=O)c1cccnc1SCCS(=O)(=O)c1ccccc1
→ -0.3, 0.45
- COCCCN1C(=O)/C(=C/c2c(N3CCN(Cc4ccccc4)CC3)nc3c(C)cccn3c2=O)SC1=S
→ 0.14, nt
- CC(C)C(C)(C#N)NC(=O)CSc1nncn1C (configuration not stated)
→ nt, 0.25
- CCN(CC)c1ccc(/C=N/n2c(C)cc(C)cc2=O)cc1
→ 0.24, 0.15
- CC1CN=C(N(Cc2ccccc2Cl)C(=O)Nc2cccc(Cl)c2)S1 (configuration not stated)
→ 0.17, 0.05
- CC(=O)Nc1sc2c(c(=O)c1O)CCCC2
→ -0.045, -0.35
- COc1ccc(CNc2nccs2)c(O)c1
→ 0.28, -0.35
- CC1CCC2(CC1)Nc1ccccc1C(=O)N2CCc1ccccc1 (configuration not stated)
→ 0.83, -0.5
- Cc1ccc2oc(-c3ccccc3)cc(=NCCO)c2c1
→ -0.27, -0.9
- Cc1ccc(SCC(=N)N)cc1
→ -0.9, 1.5
- CCc1ccc(Nc2ncc3c(n2)CC(C)CC3=O)cc1 (configuration not stated)
→ nt, 0.75
- c1ccc(-c2cnnc(SCc3cn4cccnc4n3)n2)cc1
→ 0.66, 0.35

A draw from above in order of length of the SMILES, lowest first.
Each structure is followed by: Ba CapD inh, AID504770
- O=C(O)CSc1nc2ccccc2o1
→ 6.9, -0.05
- CC(C)C(C)(C#N)NC(=O)CSc1nncn1C (configuration not stated)
→ nt, 0.25
- CC(OC(=O)c1ccccc1NS(C)(=O)=O)c1nnc(-c2cccs2)o1 (configuration not stated)
→ nt, 0.2

Remaining list, next part.
Each structure is followed by: Ba CapD inh, AID504770
- O=C(NCC12CC3CC(CC(C3)C1)C2)c1ccccc1
→ -1.1, 0.4
- O=C(Nc1ccc2c(c1)nc1n2CCCCC1)c1ccc(Br)o1
→ -0.62, -0.35
- Cc1onc(-c2ccccc2Cl)c1C(=O)N(Cc1nc(-c2ccccc2)no1)C(C)C
→ 0.075, -0.5
- NC(=O)COC(=O)c1cc2c(s1)CCC2
→ nt, -1.1
- COc1ccc(Br)cc1C1C(N2C(=O)c3cccc([N+](=O)[O-])c3C2=O)C(=O)N1c1ccc(Cl)cc1C (configuration not stated)
→ -0.63, nt
- COc1ccc(N=Nc2cnc(-c3ccccn3)nc2-c2ccc(OC)cc2)cc1
→ 0.39, nt
- O=C(OCc1cnc(-c2ccccc2)o1)c1ccco1
→ 0.6, 0.25
- CN(C)c1cc(N)c2ccccc2n1
→ nt, 1.8
- CC(Oc1cccc2c1CCN(C)C2=O)c1ccccc1 (configuration not stated)
→ nt, 1.2
- CN=C1NC(=NC)c2ccccc21
→ 12, -0.4
- CC(C)C(NC(=O)OCc1ccccc1)C(=O)Oc1ccc2c(=O)c(Oc3ccccc3)coc2c1 (configuration not stated)
→ 0.21, 0.9
- Fc1ccc(-n2cc(-c3ccccc3)c3c(N4CCCC4)ncnc32)cc1
→ -0.24, nt
- CC(C)(C)C1=CC(O)(c2ccccc2)C=C(C(C)(C)C)C1=O
→ -0.08, -0.2
- c1coc(-c2cc(C3CCNCC3)[nH]n2)c1
→ 0.23, -0.5
- CC(NC(=O)c1cccs1)C(c1cccs1)N1CCN(Cc2ccccc2)CC1 (configuration not stated)
→ -0.025, 1.6
- CCN(CC)S(=O)(=O)c1ccc(C(=O)C2=C3SC=C(c4ccc(OC)cc4)N3CC2)cc1
→ nt, 0.1
- O=C1NC(=O)N(c2ccc3c(c2)OCO3)C(=O)/C1=C/c1cc(Br)c(N2CCOCC2)o1
→ 0.11, nt
- Cc1cc(=O)n2[nH]c(NC(=O)c3cccs3)nc2n1
→ -1.2, -0.2
- Cc1ccc(NC2CCCCC2NS(=O)(=O)c2ccccc2)cc1 (configuration not stated)
→ -0.32, -0.1
- CC(=O)Nc1nc2ccccc2[nH]1
→ 0.6, nt
- CCn1c2ccccc2c2cc(NC(=O)Oc3ccccc3)ccc21
→ -0.01, -0.2
- COc1cc(Cc2nnc(C(=O)NC3CCCCCC3)o2)cc(OC)c1OC
→ 0.03, -0.25
- Cn1c(SCCN2CCCC2)nnc1C1CCCN1C(=O)NC1CCCCC1 (configuration not stated)
→ nt, 2.8
- O=C(CCN1C(=O)/C(=C\c2cccc(Br)c2)SC1=S)Nc1cccc(C(=O)O)c1
→ 0.04, nt
- C=C(C)CSC1=C(C#N)C(C)(C)C(C#N)C(=O)N1 (configuration not stated)
→ 0.11, -0.2
- CCCCc1c(COC)[nH]c(=S)[nH]c1=O
→ -0.72, nt
- CCOC(=O)c1cnc2c(C)cc(C)cc2c1Nc1ccccc1
→ -0.43, nt
- CCC1C(=NO)C(CC)C(c2ccccc2)NC1c1ccccc1 (configuration not stated)
→ 0.46, -0.85
- COC(=O)c1cc(S(=O)(=O)N(C)Cc2ccccc2)c[nH]1
→ 0.09, -0.75
- Clc1ccc(N2CCCCCCC2)nn1
→ 2.3, -0.9

Entries of single compounds, looked up by structure:
`CC(C)(C)C1=CC(O)(c2ccccc2)C=C(C(C)(C)C)C1=O` as listed: Ba CapD inh: -0.08; AID504770: -0.2
`COc1ccc(Br)cc1C1C(N2C(=O)c3cccc([N+](=O)[O-])c3C2=O)C(=O)N1c1ccc(Cl)cc1C` (configuration not stated) as listed: Ba CapD inh: -0.63; AID504770: nt
`NC(=O)COC(=O)c1cc2c(s1)CCC2` as listed: Ba CapD inh: nt; AID504770: -1.1

(next part)
Each structure is followed by: Ba CapD inh, AID504770
- NC(=S)N/N=C/c1ccc(F)cc1
→ -0.78, nt
- CCCCc1ccc(C(=O)Nc2ccc(Cl)c3c2C(=O)c2ccccc2C3=O)cc1
→ -0.21, nt
- CC(C)N(Cc1nc(-c2ccccc2)no1)C(=O)COc1ccccc1
→ -0.12, 1.2
- Cc1cccc(NC(=O)CN2NS(=O)(=O)c3ccccc3C2=O)c1
→ nt, -1.8
- N#Cc1nccnc1S(=O)(=O)CCO
→ -0.08, -0.65
- O=S(=O)(c1ccc(Cl)cc1)N1CCC2(CC1)OCCO2
→ nt, -0.4
- COC(=O)c1cc2c(C)nn(Cc3ccccc3Cl)c2s1
→ nt, 1.6
- Cc1c(/C=N/NC(=O)c2ccccc2CCc2ccccc2)sc2ccccc12
→ -0.88, nt
- Cn1cccc1Cc1nnc(SCC(=O)Nc2ccc3c(c2)OCO3)n1-c1ccc(F)cc1
→ -1.1, -0.55
- N#CCC(=O)c1nsc(Cl)c1Cl
→ -1.4, -0.45
- COc1ccc(COC(=O)C2=C(C)NC(=O)NC2c2cccc(Oc3ccccc3)c2)cc1 (configuration not stated)
→ 0.065, nt
- Cc1ccc(N/C=C/C(=O)c2sc(-c3ccc(Cl)cc3)nc2C)cc1
→ 0.43, nt
- Cc1cc(Br)ccc1NC(=O)C1CC(O)CN1C(=O)OCc1ccccc1 (configuration not stated)
→ nt, -0.9
- CCOC(=O)c1ccccc1NC(=O)CC(C)CC(=O)O (configuration not stated)
→ 3.6, -1
- O=S(=O)(c1ccc(NC(=S)N2CCCC2)cc1)N1CCCCC1
→ 0.29, 0.5
- O=C(COc1ccc(C=C2C(=O)NC(=O)NC2=O)cc1)NCC1CCCO1 (configuration not stated)
→ nt, -0.4
- N=C1S/C(=C/c2ccco2)C(=O)N1c1nccs1
→ -4.3*, 0.05
- N#CCn1cnc2c(cnn2-c2ccccc2)c1=O
→ -0.41, -0.25
- CC1CCc2c(sc3nc(-c4ccco4)oc(=O)c23)C1 (configuration not stated)
→ 0.71, nt
- CCC(C)c1ccc(NC(=O)c2ccc(N(CC)CC)cc2)cc1 (configuration not stated)
→ 9.3, 2
- Cc1sc2nc(CN3CCN(C(=O)c4ccco4)CC3)n(C(=O)c3ccco3)c(=O)c2c1C
→ nt, -0.45
- Oc1ccc(C(=S)N2CCCCCC2)cc1
→ -0.43, 0.35
- C=CCn1c(NC(=O)COc2ccccc2)nc2ccccc21
→ nt, 1.6
- S=C(NCc1ccc2c(c1)OCO2)N(Cc1ccco1)Cc1cccs1
→ nt, 0.85
- CCC1Oc2ccc(C)cc2N(CC(=O)NCCCN2CCN(c3ccccc3F)CC2)C1=O (configuration not stated)
→ 0.78, -0.6
- COC(=O)c1cccc(NC(=O)/C(=C\c2ccc3c(c2)OCO3)NC(=O)c2ccccc2OC)c1
→ 4.3, nt
- CCc1ccccc1NC(=O)C1=CC(c2cccc(OC)c2)=NS(=O)(=O)N1C
→ -0.93, 0.3
- CCN(CC)C(=O)Cn1c(C)c(C#N)c2ccccc21
→ nt, -0.2
- CC(=N/Nc1nnc(C)n1N)/C(C)=N/Nc1nnc(C)n1N
→ nt, 0
- COc1ccc(CCNC(=O)CSc2nncn2C)cc1
→ nt, -2.6
- O=C(NC1CCN(C(=O)c2c(Cl)cccc2Cl)CC1)c1ccccc1
→ 0.68, -1
- Cn1cnc(S(=O)(=O)N=S(C)(=O)c2ccc(Cl)cc2)c1 (configuration not stated)
→ 0.28, 0.1

Screening results from PubChem.
